# Screening results from PubChem BioAssay.
# Prx2 Sm inh: inhibitors of Schistosoma mansoni peroxiredoxin 2; S. mansoni Prx2 activity coupled to TGR/GSH (TGR is thioredoxin glutathione reductase), NADPH fluorescence loss, qHTS; some inactives read as strong as hits; Potency, µM; 0.07% of 65,000 active; active means full or partial inhibition curve with a strong effect at the top dose; inconclusive means weaker partial or single-point curve; inactive means no accepted curve; note: series up to 57 µM; many of its hits are not listed in these tables
#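 Activity is read as the drop in NADPH fluorescence (365/450 nm), recorded every 30 sec for 8 min after H2O2 addition. Prx2 is coupled to TGR-driven NADPH oxidation through glutathione, in phosphate buffer pH 7.4.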
# LT uptake inh: anthrax lethal toxin internalization inhibition | Cells, anthrax lethal toxin internalization, FRET ratio (460/530) | Potency, µM (titrated, usually from 40 µM), without a hit: at the highest dose activity change, negative = inhibition, hits mostly inhibitors | 0.67% of 70,000 active | AID 912; active = well fitted falling ratio curve with the 530 nm signal flat; inconclusive = other ratio curves, or a change in one channel alone; inactive = flat curves in the ratio and both channels; the % refers to the ratio; note: % is set by controls: 0 for no effect and ±100 for the full control effect; nearly all actives have a fitted effect of over 50% in size; tested in ME-180 cells; beta-lactamase reporter
# * marks the source's active call; other numbers are inactive results; ? = inconclusive; . = no result given; [ ] = remark or other dose. Potency is the fitted concentration of half-maximal effect. A portion of the library; the hit share may differ from the screen's.
SMILES,Prx2 Sm inh,LT uptake inh
ClC1=C(Cl)C2(Cl)C3C(Cl)C=CC3C1(Cl)C2(Cl)Cl (stereo not given),.,16µM*
O=C(NC1CCCCC1)N(Cc1cc2cc3c(cc2[nH]c1=O)OCCO3)CC1CCCO1 (stereo not given),>57,26%
CCOC(=O)C1(CC)NC(c2cccc(F)c2)C2C(=O)N(CC)C(=O)C21 (stereo not given),>57,-8%
COc1cc(C)c(CN2CCCCC2CO)cc1C (stereo not given),.,?
COc1ccccc1OCCSc1ncnc2nc[nH]c12,>57,-2%
C(#CCN1CCOCC1)COCC#Cc1ccccc1,>57,3%
CCOC(=O)C1CCCN(CCC(=O)Nc2ccc(F)c(F)c2)C1 (stereo not given),>57,-8%
CCCc1c(O)nc(SC2CC(=O)N(c3cc(OC)ccc3OC)C2=O)[nH]c1=O (stereo not given),>57,-1%
Cc1ccc(CN(Cc2cccnc2)C(=O)CN2C(=O)COc3ccccc32)o1,>57,-10%
Cc1cc(=O)[nH]c2cc(Cl)ccc12,>57,7%
CCOC(=O)CSc1nc2ccc(N3CCOCC3)cc2c(=O)n1Cc1ccc2c(c1)OCO2,>57,?
O=c1c(-c2cccc(Cl)c2)nc2cncnc2n1Cc1ccccc1,>57,?
O=C(CCc1ccc(S(=O)(=O)N2CCOCC2)cc1)OCc1nc2ccccc2s1,>57,?
CCCn1nnc(NC(=O)c2ccc(Cl)cc2Cl)n1,>57,15%
CCN(CC)S(=O)(=O)c1ccc(NC(=O)COc2c(OC)cccc2OC)cc1,>57,-12%
COc1ccc(-c2csc(NC(=O)Cn3nc(C)cc3C)n2)cc1,>57,0%
CCOC(=O)N1CCN(C(=O)CCSCCc2ccncc2)CC1,>57,14%
COc1ccc2c(c1)CCc1c(C(=O)Nc3ccn(Cc4ccc(C)cc4)n3)noc1-2,>57,-21%
c1ccc2[nH]c(-c3nc4ccccc4[nH]3)nc2c1,>57,-30%
CCCCN1C(=O)c2ccc(C(=O)NC3=NCCS3)cc2C1=O,>57,-1%
Cc1ccc(C)c(N2CCN(S(=O)(=O)c3ccc4[nH]c(=O)c(=O)[nH]c4c3)CC2)c1,>57,-17%
Cc1ccc(CCNC(=O)C2CCCN(S(=O)(=O)c3c(C)noc3/C=C/N(C)C)C2)cc1 (stereo not given),>57,-10%
O=C1CCC(=O)N1CC(=O)N1c2ccccc2Sc2ccccc21,.,0%
O=C(COc1ccc(Cl)cc1Cl)NCCCn1ccnc1,>57,-12%
CCc1nnc(NC(=O)C2CCN(S(=O)(=O)Cc3ccccc3)CC2)s1,>57,4%
# The results go on:
SMILES,Prx2 Sm inh,LT uptake inh
COc1cccc(/C=N/n2c(SC)nnc2-c2ccccc2)c1O,>57,?
O=C(Nc1ccccc1-c1ccccc1)C1CCCN(c2ncccn2)C1 (stereo not given),>57,-8%
COC(=O)c1ccc(N2C(=O)CC(N(C)CCc3ccc(OC)c(OC)c3)C2=O)cc1 (stereo not given),>57,-10%
COc1ccccc1N1CCN(C(CNC(=O)c2ccc3c(c2)OCO3)c2cccnc2)CC1 (stereo not given),>57,-2%
CCCOC(=O)C1C2C=C[C@]3(CN(CCc4ccccc4)C(=O)[C@H]13)O2 (stereo not given in full),>57,18%
COc1ccc(OCC(=O)Nc2ccc3c(c2)nc2n3CCSC2)cc1,>57,-3%
Cc1cccc2cc(COC(=O)C(C)(C)C)c(=O)[nH]c12,>57,-8%
O=C(Nc1ccon1)c1sc2ccccc2c1Cl,>57,9%
O=C(c1ccccc1)c1nc[nH]c1C(=O)Nc1ccccc1,>57,.
O=C(CN1C(=O)C2C3C=CC(C3)C2C1=O)Nc1cccc2c1CCCC2 (stereo not given),>57,-1%
CCOC(=O)C1C(c2cccs2)NC(=O)NC1(O)C(F)(F)F (stereo not given),>57,9%
CCCn1nc(NC(=O)c2ccco2)c2cc3ccc(C)cc3nc21,>57,?
COc1ccccc1NC(=O)CSc1nnc(Cc2cccn2C)n1CCc1ccccc1,>57,-14%
NC(=O)SC/C(=N\S(=O)(=O)c1ccccc1)Nc1ccccc1,>57,-25%
COc1ccc(-c2nc3cnc(Nc4cccc(OC)c4)nc3n(CCC#N)c2=O)cc1,>11,-2%
CC(C)OC(=O)c1nnn(-c2nonc2N)c1CN1CCc2ccccc2C1,>57,-1%
CCOC(=O)N1CCC(NC(=O)Cn2cc3c(n2)CCC(C)C3)CC1 (stereo not given),>57,-4%
CC(C)C[C@@H](CC(=O)N[C@@H](CCC(=O)O)CC(=O)O)NC(=O)[C@@H]1CCCC[C@H]1NC(=O)C[C@H](CCCN)NC(=O)C[C@H](Cc1c[nH]c2ccccc12)NC(=O)[C@@H]1CNCC[C@H]1N,>57,-17%
COc1ccc(NC(=O)C2CCCN2S(=O)(=O)c2ccc(F)cc2)cc1 (stereo not given),>57,3%
OC1(c2ccc(F)cc2)CC2CCC(C1)N2Cc1nnnn1C1CCCCC1 (stereo not given),>57,-1%
COC(=O)c1ccccc1NC(=O)c1ccccc1SC,>57,?
CCOc1cc2[nH]c(=O)n(CC3CCC(C(=O)NCCC(C)C)CC3)c(=O)c2cc1OCC (stereo not given),>57,4%
COc1ccc(N(CC(=O)Nc2ccccc2SC)S(C)(=O)=O)cc1OC,>57,-4%
CC(C(=O)O)N1C(=O)CSC1=S (stereo not given),>57,-3%
COc1ccc(N2CCCn3c2nc2c3c(=O)n(CCc3ccccc3)c(=O)n2C)cc1,>57,.
# (listing goes on)
SMILES,Prx2 Sm inh,LT uptake inh
CC(C)C(NC(=O)OCc1ccccc1)C(=O)NCC(=O)OC(C)(C)C (stereo not given),>57,5%
C[C@@H](c1ccccc1)N1C(=O)[C@H]2[C@H]3[C@H](O)[C@H](O)C/C(=N/OC[C@@H](O)COCc4ccco4)[C@H]3CC[C@@H]2C1=O,.,?
CCC(=O)NCCSc1c[nH]c2ccccc12,>57,-9%
CCCN(CCO)Cc1cccc(Oc2ccccc2)c1,>57,-31%
CCCCCCn1c2c(c(=N)c3c1CCC3)CCC2,>57,13%
Cc1ccccc1Nc1nc(N)nc(COC(=O)C(NC(=O)c2ccco2)C(C)C)n1 (stereo not given),>57,?
CCOC(=O)c1ccc(NS(=O)(=O)c2cnc[nH]2)cc1,>57,-3%
CCN(CC)CCCN=C(C)c1c(O)n(C2CCCCC2)c(=O)[nH]c1=O,>57,.
O=C(CCC(=O)N(CC(=O)NC1CCCC1)Cc1ccc2c(c1)OCO2)Nc1ccccn1,>57,28%
Cc1cc(C)c2cc(C(c3nnnn3CC3CCCO3)N3CCN4CCCC4C3)c(=O)[nH]c2c1 (stereo not given),>57,6%
CC(C)[C@@H](CC(=O)N[C@@H]1CCCC[C@H]1C(=O)N[C@H](CC(=O)N[C@@H](CCC(=O)O)CC(=O)O)Cc1c[nH]c2ccccc12)NC(=O)C[C@H](Cc1c[nH]c2ccccc12)NC(=O)[C@@H]1CNCC[C@H]1N,>57,-8%
CCOc1ccc(C2CC(=O)NC3=C2C(=O)CCC3)cc1 (stereo not given),>57,2%
COc1ccc(-n2c(SCC(=O)Nc3nccs3)nc3sc4c(c3c2=O)CCN(C)C4)cc1,>57,10%
Cc1ccsc1C1C(C(=O)O)c2ccccc2C(=O)N1C (stereo not given),>57,4%
C#CCSc1n[nH]c(-c2ccco2)n1,>57,-3%[8 µM]
CCC1=C(C)CN(C(=O)NCCc2ccc(S(=O)(=O)NC(=O)NC3CCC(C)CC3)cc2)C1=O (stereo not given),>57,0%[3.58 µM]
CCc1c(C(=O)Nc2nnc(C3CC3)s2)csc1C,>57,-18%
COc1cccc(-c2nc(CS(=O)(=O)CC(=O)NCc3ccccc3)c(C)o2)c1,>57,-20%
O=C1CCCC2=C1C(c1ccco1)Nc1ccc3ccccc3c12 (stereo not given),.,-12%
O=c1[nH]c2cc3c(cc2cc1CN(CCc1ccccc1)Cc1nnnn1C1CCCC1)OCCO3,>57,2%
Cc1cc(C)nc(N2CCCC(C(=O)NCCC3=CCCCC3)C2)n1 (stereo not given),>57,?
Cc1onc(-c2c(F)cccc2Cl)c1C(=O)NCC1COc2ccccc2O1 (stereo not given),>57,-17%
COc1ccccc1-c1nnc(NC(=O)C(C)SC2=NCCS2)s1 (stereo not given),>57,?
O=C1C[C@@H](O)[C@@H](O)[C@@H]2[C@H]3C(=O)N(c4ccc(F)cc4F)C(=O)[C@@H]3CC[C@H]12,.,-5%[8 µM]
COc1ccc(-c2nnc(COc3ccc4ccccc4c3)o2)cc1OC,.,-28%
# Going on with the list:
SMILES,Prx2 Sm inh,LT uptake inh
CCc1c(O)nc(SCC(=O)Nc2ccccc2C)[nH]c1=O,>57,8%
COc1cc(S(=O)(=O)N2CCOCC2)ccc1NC(=O)CSc1nnc(N)s1,>57,-3%
CCCCNC(=O)NS(=O)(=O)c1ccc(NS(=O)(=O)c2ccccc2)cc1,>57,-12%
COc1ccc(C)cc1S(=O)(=O)N1CCC(C(=O)N2CCOCC2)CC1,>57,20%
CC(C)(C)n1nnnc1C(c1cccc(C(F)(F)F)c1)N1CCOCC1 (stereo not given),>57,-12%
CC1CC(C)CN(CCCNC(=O)Cc2c(C(=O)O)[nH]c3ccccc23)C1 (stereo not given),>57,-2%
CC1CCc2nc(NC(=O)c3cc(C(C)(C)C)nn3C)sc2C1 (stereo not given),>57,5%
O=C1CCC[C@H]2OC12[C@@H](O)CCc1ccccc1 (stereo not given in full),.,3%[1.6 µM]
O=C(O)CCNS(=O)(=O)c1ccc(Oc2ccccc2)cc1,>57,-26%
N#Cc1cn(CC(=O)O)c2ccccc12,>57,-7%
COc1ccc(NC(=O)CCCCn2c(=O)[nH]c3ccccc3c2=O)cc1,>57,9%
Cc1ccc(CCNS(=O)(=O)c2cnc[nH]2)cc1,>57,-1%
Cc1ccc2nc(-c3cccc(-c4nc5ccc(C)cc5o4)n3)oc2c1,>57,-1%
O=C(O)COc1ccccc1Cc1ccccc1,>57,-8%
Cc1nc(NCc2ccco2)nc2c1C(=O)CC(C)C2 (stereo not given),>57,-5%
CCCn1c(C)nc2c(c1=O)c1nc3ccccc3nc1n2-c1ccc2c(c1)OCCO2,>57,.
CC1CC2(O)c3no[n+]([O-])c3CCC2N1O (stereo not given),>57,1%
COc1ccccc1CN1CCC2(CC1)CCN(S(=O)(=O)c1ccccc1)CC2,>57,4%
Cn1cccc1-c1nc2ccc(NC(=O)c3ccco3)cc2[nH]1,>57,-17%
COCCNC(=O)[C@H]1C[C@@H]1[C@H](NP(=O)(c1ccccc1)c1ccccc1)c1ccccc1,>57,6%
CNc1oc(C)nc1S(=O)(=O)c1ccc(C)cc1,.,-7%
O=C1c2ccccc2C(Nc2ccc(S(=O)(=O)N3CCCCCC3)cc2)N1Cc1ccco1 (stereo not given),>57,?
Cc1cc(NC(=O)c2ccccc2Oc2ccccc2)no1,>57,-11%
COCCN1Cc2cccc(C(=O)NCc3ccc4c(c3)OCO4)c2C1=O,>57,5%
CN(c1cc(=O)n2ccccc2n1)C1CCCCC1,>57,0%
# (cont.)
SMILES,Prx2 Sm inh,LT uptake inh
CCCNC(=O)c1ccc(CNc2c(N3CCC(C(=O)OCC)CC3)c(=O)c2=O)cc1,>57,8%
Cc1ccc2c(CC(=O)Nc3sccc3C(N)=O)coc2c1,>57,-12%
N#CC1=C(SCC(=O)Nc2cccc3cccnc23)NC(=O)C(C#N)C12CCCCC2 (stereo not given),>57,?
Cc1cnc(CNc2cc(-c3cccc(C#N)c3)ncn2)cn1,>57,3%
O=C(Nc1ccc(Cl)cc1F)C1CCN(S(=O)(=O)c2cccnc2)CC1,>57,-17%
CCOC(=O)CN1CC23C=CC(O2)C(C(=O)Nc2ccc(OCC)cc2)C3C1=O (stereo not given),>57,5%

# Random excerpt: six compounds from above
SMILES,Prx2 Sm inh,LT uptake inh
CCOC(=O)CN1CC23C=CC(O2)C(C(=O)Nc2ccc(OCC)cc2)C3C1=O (stereo not given),>57,5%
CCCNC(=O)c1ccc(CNc2c(N3CCC(C(=O)OCC)CC3)c(=O)c2=O)cc1,>57,8%
Cc1cnc(CNc2cc(-c3cccc(C#N)c3)ncn2)cn1,>57,3%
Cc1ccc2c(CC(=O)Nc3sccc3C(N)=O)coc2c1,>57,-12%
O=C(Nc1ccc(Cl)cc1F)C1CCN(S(=O)(=O)c2cccnc2)CC1,>57,-17%
N#CC1=C(SCC(=O)Nc2cccc3cccnc23)NC(=O)C(C#N)C12CCCCC2 (stereo not given),>57,?

# Whole records, quoted from the list. Screens in order: Prx2 Sm inh	LT uptake inh
# CCOC(=O)CN1CC23C=CC(O2)C(C(=O)Nc2ccc(OCC)cc2)C3C1=O (stereo not given) as listed: >57	5%
# Cc1ccc2c(CC(=O)Nc3sccc3C(N)=O)coc2c1 as listed: >57	-12%
# N#CC1=C(SCC(=O)Nc2cccc3cccnc23)NC(=O)C(C#N)C12CCCCC2 (stereo not given) as listed: >57	?
# Cc1cnc(CNc2cc(-c3cccc(C#N)c3)ncn2)cn1 as listed: >57	3%

# Taken from the listing, 7 compounds:
SMILES,Prx2 Sm inh,LT uptake inh
CN(c1cc(=O)n2ccccc2n1)C1CCCCC1,>57,0%
CCCNC(=O)c1ccc(CNc2c(N3CCC(C(=O)OCC)CC3)c(=O)c2=O)cc1,>57,8%
Cc1ccc2c(CC(=O)Nc3sccc3C(N)=O)coc2c1,>57,-12%
N#CC1=C(SCC(=O)Nc2cccc3cccnc23)NC(=O)C(C#N)C12CCCCC2 (stereo not given),>57,?
Cc1cnc(CNc2cc(-c3cccc(C#N)c3)ncn2)cn1,>57,3%
O=C(Nc1ccc(Cl)cc1F)C1CCN(S(=O)(=O)c2cccnc2)CC1,>57,-17%
CCOC(=O)CN1CC23C=CC(O2)C(C(=O)Nc2ccc(OCC)cc2)C3C1=O (stereo not given),>57,5%
